# KCNQ2 block: KCNQ2 potassium channel inhibitors, primary screen, cell-based, CHO-K1, FluxOR thallium flux, B-score (AID 2156). B-score at 10 µM. 310,000 tested, 1.1% active. O88943. 20 min; active compounds read low; only compounds with negative scores are shown here; some inactives read as strong as hits;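 active = fluorescence ratio B-score at most minus 3 library SDs, with starting brightness B-score within 2 library SDs, cut at about -5.5 in these data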
# Target sequence (O88943 whole entry, looked up): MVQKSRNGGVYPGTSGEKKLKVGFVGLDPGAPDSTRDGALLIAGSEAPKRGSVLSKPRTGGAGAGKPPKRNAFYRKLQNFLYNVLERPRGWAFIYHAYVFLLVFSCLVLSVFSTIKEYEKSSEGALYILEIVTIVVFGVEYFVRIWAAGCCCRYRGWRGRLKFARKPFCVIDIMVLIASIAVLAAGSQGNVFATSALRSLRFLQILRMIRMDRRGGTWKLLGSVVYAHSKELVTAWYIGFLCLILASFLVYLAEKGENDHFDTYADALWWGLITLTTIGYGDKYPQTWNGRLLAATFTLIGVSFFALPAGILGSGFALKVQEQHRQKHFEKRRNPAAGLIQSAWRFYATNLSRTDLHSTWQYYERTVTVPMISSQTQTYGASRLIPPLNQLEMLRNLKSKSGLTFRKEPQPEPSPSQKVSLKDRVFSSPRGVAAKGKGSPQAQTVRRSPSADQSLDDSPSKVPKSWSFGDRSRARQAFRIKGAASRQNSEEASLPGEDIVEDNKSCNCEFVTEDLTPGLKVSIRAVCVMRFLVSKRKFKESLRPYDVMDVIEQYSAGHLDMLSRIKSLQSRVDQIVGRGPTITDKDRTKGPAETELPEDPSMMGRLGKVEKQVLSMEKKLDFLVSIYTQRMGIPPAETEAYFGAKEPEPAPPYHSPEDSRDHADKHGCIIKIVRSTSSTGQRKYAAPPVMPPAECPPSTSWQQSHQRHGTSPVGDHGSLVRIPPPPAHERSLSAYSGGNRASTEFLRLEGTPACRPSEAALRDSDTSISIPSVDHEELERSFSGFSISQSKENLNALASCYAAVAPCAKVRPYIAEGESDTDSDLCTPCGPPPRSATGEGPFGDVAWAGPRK
# KCNQ2 block baseline: also measured in KCNQ2 block; calls as there; B-score; measured here: initial fluorescence intensity artifact check;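 brightness before thallium and not channel activity; 0 = typical well and far values either way flag optical interference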
# Numbers without * were called inactive; i = inactive; & = joins results of further samples. These rows are one share of the data, so the mix of outcomes need not match the whole.
SMILES,KCNQ2 block,KCNQ2 block baseline
COc1ccc(/C=C/C(=O)c2ccc(OC)cc2OC)cc1,i,2.5
CCOC(=O)c1cc(-c2ccccc2)n(CCC(=O)N2CCN(c3ccc(OC)cc3)CC2)c1C,i,0.06
Cc1c(C(=O)N2CCN(Cc3ccc4c(c3)OCO4)CC2)sc2ncnc(N3CCN(c4ccccc4)CC3)c12,i,-0.78
O=C1/C(=C\c2ccc(Br)o2)Cc2ccccc21,i,0.62
CC1=NOC(=O)/C1=C/c1ccc(O)c(Cl)c1,i,-1.8
COc1cccc(CN2CCN(C(=O)c3ccco3)CC2)c1,i,-0.11
Nc1nnc(SCC(=O)Nc2nccs2)s1,i,-2.5
Cc1nnc(N2CCC(C(=O)NC3CCC(C)CC3)CC2)c2nn(-c3ccc(Cl)cc3)c(C)c12 (stereo not drawn),i,-0.43
COc1cc(C(=O)Nc2cccc(-c3nncn3C)c2)cc(OC)c1OC,i,-0.05
C=CCN(C(=O)Nc1ccc(Cl)cc1)C1CC(=O)N(c2ccc(OC)cc2)C1=O (stereo not drawn),i,-1.4
Cc1cc(NS(=O)(=O)c2ccc(NC(=O)COc3ccccc3C(C)(C)C)cc2)no1,i,-0.78
CCCCC(=O)Nc1ccc(C(=O)N2CCCC(C(=O)OCC)C2)cc1 (stereo not drawn),i,0.03
O=[N+]([O-])c1ccc(/C=[N+](\[O-])CCO)o1,i,0.31
Cc1n[nH]c(=O)nc1NCCc1ccccc1,i,1.3
CCC(C)C(NC(N)=O)C(=O)Nc1ccc(OCc2ccccc2)cc1 (stereo not drawn),i,-0.39
CCOc1ccccc1NC(=O)NC1(C(=O)NCC2CCCO2)CCCCC1 (stereo not drawn),i,-0.85
COc1cc(NS(=O)(=O)c2ccc(NC(=O)c3ccc(C)o3)cc2)nc(OC)n1,i,-0.05
COc1ccc(OCCC(=O)NCc2ccccc2)cc1,i,-0.07
O=C(O)C1C2C=CC3(CN(Cc4ccccn4)C(=O)C13)O2 (stereo not drawn),i,-1.5
COc1cc(C2(c3ccc(O)c(OC)c3)C(=O)N(C)c3ccc(Br)cc32)ccc1O,i,1.2
O=C(Cn1ncc2c(=O)oc3ccccc3c21)NCCC1=CCCCC1,i,2.5
Cc1ccc(Cl)cc1NC(=S)N(Cc1cccnc1)Cc1ccccc1Cl,i,-0.02
O=C1CC(c2ccccc2)CN1S(=O)(=O)c1ccccc1 (stereo not drawn),i,-2
COCCNC(=O)c1c(N)n(CCCn2ccnc2)c2nc3ccccc3nc12,i,3.3
O=C(Nc1ccccc1)N1CCc2c([nH]c3ccccc23)C1C(F)(F)F (stereo not drawn),i,-0.55
# Remaining list, next part.
SMILES,KCNQ2 block,KCNQ2 block baseline
Cc1cccc(C)c1NC(=O)CC(NCCc1ccccc1)C(=O)O (stereo not drawn),i,-0.36
CCOc1cc(-c2noc(CCCC(N)=O)n2)cc(Br)c1OC,i,-0.67
N#Cc1cccc(Nc2c3c(nc4ccccc24)CCC3)c1,i,-0.01
O=C(CN1CCCC1)Nc1ccc2c(c1)CCC2,i,1.8
O=C(N/C(=C/c1cccc([N+](=O)[O-])c1)C(=O)N1CCOCC1)c1ccccc1Br,i,3.4
COc1cccc2sc(N(CCN(C)C)C(=O)/C=C/c3cccs3)nc12,i,1.7
COc1ccc(CNC(=O)CCCn2ncn3c(cc4occc43)c2=O)cc1,i,2.8
O=C(c1cc(Br)c(Br)s1)N1CCN(C/C=C/c2ccccc2)CC1,i,1.1
COc1cccc(NC(=S)NC(=O)/C=C/c2ccco2)c1,i,1.6
COc1ccc(N(CC(=O)NCc2ccc(Cl)cc2)S(=O)(=O)c2c(C)n[nH]c2C)cc1,i,-0.56
Clc1ccc(OCc2nc(-c3ccncc3)no2)cc1,i,-0.8
CC(C)(C)c1ccc(S(=O)(=O)NCC(=O)N2CCN(Cc3ccccc3)CC2)cc1,i,1.1
CCOC(=O)Cc1csc(SCC(=O)/C(C#N)=C(\C)N)n1,i,2.4
CCC(C)C(=O)N1c2ccccc2C(=C2SC(C(=O)OC)=C(C(=O)OC)S2)C(=S)C1(C)C (stereo not drawn),i,-0.02
CCOc1ccc(OCC)c(S(=O)(=O)NC2CC(C)(C)NC(C)(C)C2)c1,i,2.5
Cc1ccc(OC(=O)CCC(=O)Nc2ccc(C(N)=O)cc2)cc1,i,0.17
S=C(NCCc1ccccc1)Nc1ccc(Nc2ccccc2)cc1,i,1.9
O=C1c2ccccc2C(=O)N1c1ccc(Br)c2cccnc12,i,1.8
CCOC(=O)c1ccccc1NC(=O)/C=C/c1cc(OC)c(OC)c(OC)c1,i,-0.29
O=C(CN(C(=O)c1csnn1)c1ccccc1Cl)NC1CCCCC1,i,-1.8
O=C1C=C(N(CCO)CCO)C2(CCCCC2)O1,i,1.6
O=C(CSc1nnc(-c2ccccc2)n1-c1ccccc1)c1cccs1,i,-0.71
Cc1cc(C(=O)Nc2nc3ccc(S(C)(=O)=O)cc3s2)c(C)o1,i,1.2
Cc1ccc(S(=O)(=O)n2nc(-c3ccc(Cl)cc3)nc2NCc2ccco2)cc1,-9.3*,-0.47*
C=CCn1c(SCc2csc(-c3ccc(Cl)cc3)n2)nnc1-c1ccccc1OC,i,1.5
# Later entries.
SMILES,KCNQ2 block,KCNQ2 block baseline
CCc1nccn1S(=O)(=O)c1ccccc1[N+](=O)[O-],i,2.2
CCC(C)NC(=O)CSc1nnc(-c2cc(-c3cccs3)nc3ccccc23)o1 (stereo not drawn),i,-0.18
COC(=O)c1cc(C#N)c(NCc2ccccc2)nc1C,i,0.39
COc1cccc2c1OCC/C2=N\NC(=O)COc1ccccc1C,i,0.31
c1ccc(CCc2nc(-c3ccc(-n4cccc4)cc3)no2)cc1,i,0.53
Cc1ccsc1C(=O)N/N=C/c1ccc2c(c1)OCO2,i,0.32
COc1cc(C)c(C)cc1S(=O)(=O)n1c(C)nc2ccccc21,i,0.18
O=C(NC1CCCCC1)C(c1ccc2ncccc2c1)N(Cc1ccccc1)C(=O)c1cccs1 (stereo not drawn),i,-0.09
CCCCC(=O)Nc1ccc(C(=O)NNC(=S)NC(=O)c2ccccc2[N+](=O)[O-])cc1,i,-1.4
O=C(COC(=O)CSCC(=O)N1CCCCC1)Nc1ccc(Cl)cc1,i,1.2
O=C(NNc1cc(Cl)ccc1Cl)C1CCC1,i,-0.43
CCC(=O)N1CCc2cc(Br)cc(S(=O)(=O)NC3CCN(Cc4ccccc4)CC3)c21,i,1.4
Cc1ccc(NC(=O)Cn2nc(-c3ccco3)ccc2=O)cc1Cl,i,0.92
Cc1nc(C(=O)NC(C)C)nn1-c1cc(Cl)cc(Cl)c1,i,1.5
COc1ccc(CCN(C)CCN2C(=O)c3ccccc3C2=O)cc1OC,i,1.5
COc1ccc(-n2c(C)nn(CCOc3ccccc3)c2=O)cc1,i,3
Cc1cc(NC(=O)CSCC(=O)NCc2cccc(C(F)(F)F)c2)no1,i,1.4
COC(=O)[C@]1(CC(C)C)N[C@H](c2ccc(-c3cccc(Cl)c3)cc2)[C@@H]2C(=O)N(C)C(=O)[C@@H]21,i,-0.27
CCCCNC(=S)N(C)/N=C/c1ccc(F)cc1,i,-0.15
Cc1ccc(/C=N/N2CCN(Cc3ccccc3)CC2)s1,i,-1.8
COc1c(C)cccc1C(=O)Nc1ccc(CN2CCOCC2)cc1,i,1
Cn1c(=O)n(CC(=O)O)c(=O)c2c1nc1n2CCS1,i,-0.82&1.1
COc1cc2c(cc1OC)C(C)N(C(=O)Cn1ncc3c1-c1cc(C)ccc1OC3)CC2 (stereo not drawn),i,-0.24
Cc1ccc2nc(SCCC#N)nc(C)c2c1,i,0.04
C=CCn1c(SCn2nnc3ccccc3c2=O)nnc1-c1ccc(Br)cc1,i,-0.62
# Next section:
SMILES,KCNQ2 block,KCNQ2 block baseline
Cc1ccc(NC(=O)CN2C(=O)NC(C)(c3ccc(Cl)cc3)C2=O)cc1 (stereo not drawn),i,-1.6
COc1ccc(/C=N/NC(=O)c2c(C)nc3ccccn23)cc1[N+](=O)[O-],i,0.01
O=C(Nc1cccc(-c2nc3ccccc3[nH]2)c1)c1ccc(C(=O)Nc2cccc(-c3nc4ccccc4[nH]3)c2)cc1,i,-0.81
COc1cc2nc(-c3ccc(Br)o3)oc(=O)c2cc1OC,i,0.04
CC1(C)CC(NC(=O)CCc2ccccc2)CC(C)(C)N1,i,-1.1
O=C1Nc2ccccc2/C1=C\C(=O)c1ccccc1,i,0.59
COc1ccc(Nc2c(C)cccc2C)cc1,i,0.08
COc1ccccc1/C=N/N1C(=O)C(CC(=O)Nc2ccc([N+](=O)[O-])cc2OC)SC1=Nc1cccc(C)c1C (stereo not drawn),i,-2.7
Cc1ccc2c(c1)C(=O)C(=O)N2CC(=O)OC(C)C,i,0.65
COC(C[C@H]1O[C@@H]1C(=O)COCc1ccccc1)OC,i,3.7
COc1cc(C(=O)NC(=S)Nc2ccc([N+](=O)[O-])cc2)cc(OC)c1OC,i,1.5
CCOc1cc(C(=O)NCCN2C(=O)S/C(=C\c3cccnc3)C2=O)cc(OCC)c1OCC,i,-0.77
CC1CN(C(=O)Cn2cc(S(=O)(=O)CC(=O)N3CCOCC3)c3ccccc32)CC(C)O1 (stereo not drawn),i,-0.6
COc1cc2c(O)c3c(c(-c4ccc5c(c4)OCO5)c2cc1OC)C(=O)OC3,i,-0.07
CN(C)S(=O)(=O)Nc1ccc(Br)cc1F,i,1.3
CCOC(=O)c1c(NC(=O)CSc2nnc(CNc3ccc(Cl)cc3)o2)sc(C)c1C,i,0.44
COc1ccccc1-c1coc2c(CN3CCC(C)CC3)c(O)ccc2c1=O,i,-0.32
Cc1ccc(S(=O)(=O)N2CCOCC2)cc1C(=O)OCC(=O)NCc1ccccc1,i,2
CCN(Cc1ccccc1)C(c1ccccn1)c1nnnn1C1CCCCC1 (stereo not drawn),i,-2.3
O=C(Nc1ccccc1F)C(=O)Nc1cccc2ccccc12,i,-0.04
O=C(c1cccs1)N1N=C(c2ccccc2)CC1c1ccccc1 (stereo not drawn),i,1.6
CCCCN1CC(=O)N2Cc3[nH]c4ccccc4c3C[C@H]2C1=O,i,-1.6
CC1(C)CC(=O)C(/C=N/n2cnc3ccccc3c2=O)=C(O)C1,i,1.1
COC(=O)c1sc(=S)n(-c2ccccc2OC)c1N,i,0.41
CCc1nnc(NC(=O)[C@@H](NC(=O)c2ccc(C(C)(C)C)cc2)C(C)C)s1,i,3.8

# 5 records drawn at random from the list so far:
SMILES,KCNQ2 block,KCNQ2 block baseline
O=C(Nc1ccccc1F)C(=O)Nc1cccc2ccccc12,i,-0.04
O=C(c1cccs1)N1N=C(c2ccccc2)CC1c1ccccc1 (stereo not drawn),i,1.6
CCOC(=O)c1c(NC(=O)CSc2nnc(CNc3ccc(Cl)cc3)o2)sc(C)c1C,i,0.44
COC(C[C@H]1O[C@@H]1C(=O)COCc1ccccc1)OC,i,3.7
O=C(Nc1cccc(-c2nc3ccccc3[nH]2)c1)c1ccc(C(=O)Nc2cccc(-c3nc4ccccc4[nH]3)c2)cc1,i,-0.81

# Continuation.
SMILES,KCNQ2 block,KCNQ2 block baseline
O=C(NCc1nc2ccccc2[nH]1)C1=C[C@H](c2coc3ccccc3c2=O)C[C@H](OCCCCO)O1,i,-4
Cc1ccc(S(=O)(=O)NNc2nc3ccccc3nc2C(F)(F)F)cc1,i,-1.6
O=C(CCS(=O)(=O)c1ccccc1Cl)NCCC1=CCCCC1,i,-0.05
Cc1[nH]c2ccccc2c1C(=O)C(=O)NCCCn1ccnc1,i,-0.33
CC(=O)Nc1ccc(NC(=O)CCC(=O)OCC(=O)c2ccc(F)cc2)cc1,i,-1.5
Cc1cc2cc3c(cc2nc1SCC(=O)N1CCN(C(=O)c2ccco2)CC1)OCO3,i,-0.66
CC(NC(=O)COc1ccccc1-c1ccccc1)c1ccccc1 (stereo not drawn),-6.9*,1.1*
CS(=O)(=O)N1CCN(c2ccccc2NC(=O)c2ccc(Cl)cc2)CC1,i,-0.1
Cc1ccc(C)c(C2C(=O)c3ccccc3C2=O)c1,i,0.09
Cc1cc(C)nc(SCc2nnc(SCC(=O)Nc3ccccc3C)n2Cc2ccco2)n1,i,-0.24
CCOc1ccccc1NC(=O)Nc1ccc(Cl)cc1,i,0.45
Brc1cccc2sc(N3CCN(c4ccccc4)CC3)nc12,i,0.21
COc1ccc(N2CCN(C(=O)c3cccc4nc(C)oc34)CC2)cc1,i,0.33
COc1ccc(C(=O)NC(=S)Nc2ccc3oc(=O)ccc3c2)cc1,i,4
Cc1nc(NC(=O)CSc2nnc(C3CC3)n2C)sc1C(=O)N(C)C,i,0.19
Cc1ccc(NS(=O)(=O)c2c(C)[nH]c(C)c2C(=O)N2CCCCC2)c(C)c1,i,-0.14
Cc1ccccc1OCCC(=O)N1CCN(S(=O)(=O)c2ccc(Cl)cc2)CC1,i,0.58
O=C(NCCCc1ccccc1)Nc1cccc(Cl)c1,i,-0.8
Cc1ccc(-n2nnnc2SC(C(=O)c2c[nH]c3ccccc23)c2ccccc2)cc1 (stereo not drawn),i,-0.6
COC(=O)c1ccccc1NC(=O)Cn1c(SC)c(F)cnc1=O,i,0.99
CS(=O)(=O)N(CC(=O)NCCSCc1ccccc1)c1ccccc1Br,i,-0.17

# Arranged by SMILES length (lowest first): 4 of the compounds above
SMILES,KCNQ2 block,KCNQ2 block baseline
Clc1ccc(OCc2nc(-c3ccncc3)no2)cc1,i,-0.8
CCOC(=O)Cc1csc(SCC(=O)/C(C#N)=C(\C)N)n1,i,2.4
CC1(C)CC(=O)C(/C=N/n2cnc3ccccc3c2=O)=C(O)C1,i,1.1
Cc1nnc(N2CCC(C(=O)NC3CCC(C)CC3)CC2)c2nn(-c3ccc(Cl)cc3)c(C)c12 (stereo not drawn),i,-0.43

# Of the compounds above, these have a COOH group.
SMILES,KCNQ2 block,KCNQ2 block baseline
O=C(O)C1C2C=CC3(CN(Cc4ccccn4)C(=O)C13)O2 (stereo not drawn),i,-1.5
Cc1cccc(C)c1NC(=O)CC(NCCc1ccccc1)C(=O)O (stereo not drawn),i,-0.36
Cn1c(=O)n(CC(=O)O)c(=O)c2c1nc1n2CCS1,i,-0.82&1.1
